HIV Env fusion: inhibitors of HIV Env-mediated cell fusion; actives 1.1% (n = 360,000); HeLa-JRFL Env/CEM21 cell fusion, luciferase; AID 651610; inhibition, % at 12.3 µM;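 active means mean replicate inhibition score of at least 50 and every replicate individually at or above 50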;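 further: 0% = plate neutral controls and 100% = maraviroc near 300 nM; one replicate is shown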
Yeast UUG start: yeast start codon fidelity modulation | S. cerevisiae UUG-firefly luciferase reporter, luminescence/redox ratio | activity score, % at 18.7 µM | actives 0.13% (n = 350,000);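 active means replicate mean at a twofold rise or more, about +100% in these data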;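 further: firefly luciferase made from a UUG start codon reports start codon fidelity; reporter light over untreated wells divided by growth signal over untreated wells; some hits fall short of that in this replicate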
Starred values were filed as active, the others as inactive; [ ] = another dose, or the depositor's remark. Some of the compounds tested; count on the stated rates, not on these rows.

Screening Cc1noc(C)c1S(=O)(=O)Nc1ccc2c(c1)CC(=O)N([C@@H](C)CO)C[C@H](C)[C@H](CN(C)S(C)(=O)=O)O2 returned HIV Env fusion 4[16.7 µM] and Yeast UUG start 1.
For C[C@@H]1CCCCO[C@@H](CN(C)C(=O)Cc2ccccc2)[C@@H](C)CN([C@@H](C)CO)C(=O)c2cc(N(C)C)ccc2O1 the results were HIV Env fusion 6[16.7 µM] and Yeast UUG start 8.
C[C@H]1CN([C@@H](C)CO)C(=O)Cc2cc(NC(=O)c3ccncc3)ccc2O[C@@H]1CN(C)Cc1ccc2c(c1)OCO2 was read as HIV Env fusion 2[16.7 µM] and Yeast UUG start 12.
For C[C@@H]1CN([C@H](C)CO)C(=O)Cc2cc(NC(=O)Nc3ccc(F)cc3)ccc2O[C@@H]1CN(C)C(=O)Nc1ccc(C(F)(F)F)cc1 the results were HIV Env fusion -21[16.7 µM] and Yeast UUG start -6.
`CCCNC(=O)C[C@H]1CC[C@H]2[C@H](COc3ccc(NC(=O)c4ccc(Cl)cc4)cc3C(=O)N2C)O1` gave HIV Env fusion 3[16.7 µM] and Yeast UUG start -1.
For C[C@@H]1CN([C@@H](C)CO)S(=O)(=O)c2ccc(C#Cc3ccccc3F)cc2O[C@H]1CN(C)C(=O)Cc1cccnc1 the results were HIV Env fusion 29[16.7 µM] and Yeast UUG start 4.
`CC(C)NC(=O)N(C)C[C@H]1Oc2ncc(C#CCC3CCCC3)cc2C(=O)N([C@@H](C)CO)C[C@@H]1C` gave HIV Env fusion -8[16.7 µM] and Yeast UUG start -5.
For C[C@H](CO)N1C[C@H](C)[C@H](CN(C)C(=O)C2CC2)Oc2ncc(C#CCc3ccccc3)cc2C1=O the results were HIV Env fusion 1[16.7 µM] and Yeast UUG start -4.
Screening Cc1noc(C)c1NC(=O)N(C)C[C@@H]1Oc2ccc(NC(=O)CCN3CCOCC3)cc2CC(=O)N([C@H](C)CO)C[C@H]1C returned HIV Env fusion -25[16.7 µM] and Yeast UUG start -7.
Screening C[C@@H]1CCCCO[C@@H](CN(C)CC2CCCCC2)[C@@H](C)CN([C@H](C)CO)C(=O)c2cc(NC(=O)CCCCCC(=O)Nc3ccccc3N)ccc2O1 returned HIV Env fusion -4[16.7 µM] and Yeast UUG start 0.
For C[C@H]1CN([C@@H](C)CO)S(=O)(=O)c2ccc(C#CC3CC3)cc2O[C@@H]1CN(C)C(=O)C1CCC1 the results were HIV Env fusion -16[16.7 µM] and Yeast UUG start 3.
Screening COCC#Cc1cnc2c(c1)C(=O)N([C@H](C)CO)C[C@H](C)[C@@H](CN(C)C(=O)CCN1CCCCC1)O2 returned HIV Env fusion 0[16.7 µM] and Yeast UUG start -1.
Screening CN(C)CC(=O)Nc1ccc2c(c1)[C@@H]1C[C@@H](CC(=O)NCCN3CCCCC3)O[C@H](CO)[C@@H]1O2 returned HIV Env fusion -8[16.7 µM] and Yeast UUG start -6.
`C[C@@H]1CN([C@@H](C)CO)C(=O)c2cccc(NC(=O)c3nc4ccccc4s3)c2O[C@@H]1CN(C)S(=O)(=O)c1ccc(Cl)cc1` gave HIV Env fusion -15[16.7 µM] and Yeast UUG start 1.
C[C@@H]1CN([C@H](C)CO)C(=O)c2cc(-c3cncnc3)cnc2O[C@H]1CN(C)Cc1ccc(F)cc1 was read as HIV Env fusion -9[16.7 µM] and Yeast UUG start -4.
`Cc1ccccc1-c1cnc2c(c1)C(=O)N([C@@H](C)CO)C[C@H](C)[C@@H](CN(C)Cc1ccncc1)O2` gave HIV Env fusion -5[16.7 µM] and Yeast UUG start -13.
For C[C@@H]1CCCCO[C@H](CN(C)C(=O)Cc2ccccc2)[C@H](C)CN([C@@H](C)CO)C(=O)c2cc(NC(=O)NC3CCCCC3)ccc2O1 the results were HIV Env fusion -2[16.7 µM] and Yeast UUG start 4.
For C[C@@H]1CN([C@@H](C)CO)C(=O)c2cc(NC(=O)NC3CCCCC3)ccc2O[C@@H](C)CCCCO[C@@H]1CN(C)C(=O)c1ccncc1 the results were HIV Env fusion -3[16.7 µM] and Yeast UUG start 13.
Screening C[C@@H]1CCCCO[C@H](CN(C)C(=O)CCC(F)(F)F)[C@@H](C)CN([C@H](C)CO)C(=O)c2cc(NS(=O)(=O)c3cccs3)ccc2O1 returned HIV Env fusion -61[16.7 µM] and Yeast UUG start 2.
COc1ccc(S(=O)(=O)N[C@H]2CC[C@@H](CC(=O)N3CCN(c4ccccc4)CC3)O[C@@H]2CO)cc1 was read as HIV Env fusion 2[16.7 µM] and Yeast UUG start 9.
For C[C@H]1CN([C@@H](C)CO)C(=O)Cc2cc(NS(=O)(=O)c3ccc(F)cc3)ccc2O[C@H]1CN(C)S(=O)(=O)c1cn(C)cn1 the results were HIV Env fusion -9[16.7 µM] and Yeast UUG start 1.
For Cc1ccc(-c2cnc3c(c2)C(=O)N([C@@H](C)CO)C[C@H](C)[C@H](CN(C)C(=O)Cc2ccncc2)O3)cc1 the results were HIV Env fusion 3[16.7 µM] and Yeast UUG start -3.
Screening COc1ccc(S(=O)(=O)Nc2ccc3c(c2)C(=O)N([C@@H](C)CO)C[C@H](C)[C@H](CN(C)C(=O)CCCN(C)C)OCCCC[C@H](C)O3)cc1 returned HIV Env fusion 10[16.7 µM] and Yeast UUG start 5.
Screening CCCNC(=O)N(C)C[C@H]1Oc2ncc(C#CCC3CCCC3)cc2C(=O)N([C@@H](C)CO)C[C@H]1C returned HIV Env fusion 17[16.7 µM] and Yeast UUG start 19.
CNC[C@H]1Oc2ccc(NS(=O)(=O)c3cn(C)cn3)cc2CC(=O)N([C@@H](C)CO)C[C@@H]1C was read as HIV Env fusion 11[16.7 µM] and Yeast UUG start -11.
For CCCNC(=O)N(C)C[C@H]1Oc2ncc(C3=CCCC3)cc2C(=O)N([C@H](C)CO)C[C@H]1C the results were HIV Env fusion -25[16.7 µM] and Yeast UUG start -3.
`Cc1ccc(S(=O)(=O)N(C)C[C@H]2OCCCC[C@H](C)Oc3ccc(NC(=O)Nc4ccccc4)cc3C(=O)N([C@@H](C)CO)C[C@@H]2C)cc1` gave HIV Env fusion 5[16.7 µM] and Yeast UUG start -7.
C[C@@H]1CN([C@@H](C)CO)C(=O)Cc2cc(NS(=O)(=O)c3ccccc3)ccc2O[C@H]1CN(C)S(=O)(=O)c1ccc(Cl)cc1 was read as HIV Env fusion 0[16.7 µM] and Yeast UUG start 8.
Screening CO[C@H]1CN(C)C(=O)c2ccc(NC(=O)c3ccc(F)cc3)cc2OC[C@@H](C)NC[C@H]1C returned HIV Env fusion -9[16.7 µM] and Yeast UUG start -6.
For C[C@H](CO)N1C[C@H](C)[C@H](CN(C)C(=O)NC2CCCCC2)OCCCC[C@H](C)Oc2ccc(NS(=O)(=O)c3ccc(Cl)cc3)cc2C1=O the results were HIV Env fusion -21[16.7 µM] and Yeast UUG start 6.
For COc1ccc(S(=O)(=O)N2C[C@@H](O)COC[C@@H]3O[C@H](CC(=O)N[C@@H]4CCN(Cc5ccccc5)C4)CC[C@H]32)cc1 the results were HIV Env fusion -12[16.7 µM] and Yeast UUG start 2.
For COCC#Cc1ccc2c(c1)O[C@@H](CN(C)C(=O)CC1CC1)[C@@H](C)CN([C@H](C)CO)S2(=O)=O the results were HIV Env fusion -9[16.7 µM] and Yeast UUG start 6.
Screening COc1ccc(NC(=O)Nc2cccc3c2O[C@@H](CN(C)C(=O)NC(C)C)[C@H](C)CN([C@H](C)CO)C3=O)cc1 returned HIV Env fusion 4[16.7 µM] and Yeast UUG start -13.
Screening N#C[C@@H]1[C@H](c2ccc(-c3ccccc3F)cc2)[C@H](CO)N1C(=O)C1CCOCC1 returned HIV Env fusion 49[16.7 µM] and Yeast UUG start 7.
`Cc1ccc(-c2cnc3c(c2)C(=O)N([C@H](C)CO)C[C@@H](C)[C@@H](CN(C)C(=O)c2ccncc2)O3)cc1` gave HIV Env fusion 7[16.7 µM] and Yeast UUG start -3.
`C[C@H](CO)N1C[C@H](C)[C@H](CN(C)Cc2ccc(C(F)(F)F)cc2)Oc2ccc(NC(=O)Nc3ccc(C(F)(F)F)cc3)cc2CC1=O` gave HIV Env fusion 34[16.7 µM] and Yeast UUG start -7.
For C[C@H]1CN([C@@H](C)CO)C(=O)c2cccc(NS(=O)(=O)c3ccccc3)c2O[C@@H]1CN(C)Cc1ccncc1 the results were HIV Env fusion -8[16.7 µM] and Yeast UUG start -12.
For Cc1ccc(S(=O)(=O)NCC[C@H]2CC[C@@H](NC(=O)c3cccc(F)c3)[C@@H](CO)O2)cc1 the results were HIV Env fusion 9[16.7 µM] and Yeast UUG start 42.
`C[C@H](CO)N1C[C@H](C)[C@@H](CN(C)C(=O)NC2CCCCC2)Oc2ccc(NS(=O)(=O)c3cn(C)cn3)cc2CC1=O` gave HIV Env fusion 2[16.7 µM] and Yeast UUG start -13.
Screening COc1ccc(S(=O)(=O)Nc2ccc3c(c2)C(=O)N([C@H](C)CO)C[C@@H](C)[C@@H](CN(C)Cc2ccc(C(=O)O)cc2)O3)cc1 returned HIV Env fusion -2[16.7 µM] and Yeast UUG start 0.
For Cc1ccc(S(=O)(=O)Nc2ccc3c(c2)C(=O)N([C@H](C)CO)C[C@H](C)[C@H](CN(C)Cc2ccc4c(c2)OCO4)OCCCC[C@H](C)O3)cc1 the results were HIV Env fusion -71[16.7 µM] and Yeast UUG start 20.
For COCC#Cc1cnc2c(c1)C(=O)N([C@@H](C)CO)C[C@@H](C)[C@@H](CN(C)Cc1ccc(-c3ccccc3)cc1)O2 the results were HIV Env fusion 11[16.7 µM] and Yeast UUG start 2.
Screening CCC(=O)Nc1ccc2c(c1)OC[C@H](C)N(CC1CCOCC1)C[C@H](C)[C@H](OC)CN(C)C2=O returned HIV Env fusion -28[16.7 µM] and Yeast UUG start 65.
`O=C(CN1CCOCC1)NCC[C@H]1CC[C@H](NS(=O)(=O)c2ccc(Cl)cc2)[C@H](CO)O1` gave HIV Env fusion 5[16.7 µM] and Yeast UUG start -12.
For C[C@@H]1CN([C@@H](C)CO)C(=O)Cc2cc(NC(=O)C3CCCCC3)ccc2O[C@@H]1CN(C)C(=O)Nc1ccc(F)cc1 the results were HIV Env fusion -25[16.7 µM] and Yeast UUG start 5.
Screening CO[C@H]1CN(C)C(=O)c2ccc(NC(C)=O)cc2OC[C@@H](C)N(C(=O)c2ccc(F)cc2)C[C@@H]1C returned HIV Env fusion -5[16.7 µM] and Yeast UUG start -5.
COCC#Cc1ccc2c(c1)O[C@H](CN(C)Cc1cccnc1)[C@H](C)CN([C@H](C)CO)S2(=O)=O was read as HIV Env fusion -11[16.7 µM] and Yeast UUG start -1.
Screening CNC[C@H]1Oc2c(NC(=O)Nc3c(C)noc3C)cccc2C(=O)N([C@@H](C)CO)C[C@@H]1C returned HIV Env fusion -18[16.7 µM] and Yeast UUG start -9.
`O=C(C[C@H]1CC[C@@H]2NC[C@H](O)COC[C@H]2O1)NCCN1CCCCC1` gave HIV Env fusion 19[16.7 µM] and Yeast UUG start -11.
CC(C)NC(=O)Nc1cccc2c1O[C@H](CN(C)C(=O)Nc1ccc(C(F)(F)F)cc1)[C@H](C)CN([C@H](C)CO)C2=O was read as HIV Env fusion -15[16.7 µM] and Yeast UUG start 0.
Screening CCS(=O)(=O)Nc1ccc2c(c1)C(=O)N(C)[C@H]1CC[C@H](CC(=O)Nc3ccccc3)O[C@H]1CO2 returned HIV Env fusion 0[16.7 µM] and Yeast UUG start 5.
`COc1ccc(S(=O)(=O)N(C)C[C@H]2Oc3ccc(NC(=O)Cn4cnnn4)cc3C(=O)N([C@@H](C)CO)C[C@@H]2C)cc1` gave HIV Env fusion -57[16.7 µM] and Yeast UUG start 6.
For C[C@H]1CN([C@@H](C)CO)C(=O)Cc2cc(NS(=O)(=O)c3cn(C)cn3)ccc2O[C@H]1CN(C)Cc1ccc(Cl)c(Cl)c1 the results were HIV Env fusion 29[16.7 µM] and Yeast UUG start 7.
`C[C@H](CO)N1C[C@H](C)[C@@H](CN(C)Cc2ccccc2)Oc2ccc(NC(=O)Nc3ccc4c(c3)OCO4)cc2C1=O` gave HIV Env fusion -15[16.7 µM] and Yeast UUG start -9.

Of the compounds above, these have a Cl atom.
`CCCNC(=O)C[C@H]1CC[C@H]2[C@H](COc3ccc(NC(=O)c4ccc(Cl)cc4)cc3C(=O)N2C)O1` gave HIV Env fusion 3[16.7 µM] and Yeast UUG start -1.
`C[C@@H]1CN([C@@H](C)CO)C(=O)c2cccc(NC(=O)c3nc4ccccc4s3)c2O[C@@H]1CN(C)S(=O)(=O)c1ccc(Cl)cc1` gave HIV Env fusion -15[16.7 µM] and Yeast UUG start 1.
C[C@@H]1CN([C@@H](C)CO)C(=O)Cc2cc(NS(=O)(=O)c3ccccc3)ccc2O[C@H]1CN(C)S(=O)(=O)c1ccc(Cl)cc1 was read as HIV Env fusion 0[16.7 µM] and Yeast UUG start 8.
For C[C@H](CO)N1C[C@H](C)[C@H](CN(C)C(=O)NC2CCCCC2)OCCCC[C@H](C)Oc2ccc(NS(=O)(=O)c3ccc(Cl)cc3)cc2C1=O the results were HIV Env fusion -21[16.7 µM] and Yeast UUG start 6.
`O=C(CN1CCOCC1)NCC[C@H]1CC[C@H](NS(=O)(=O)c2ccc(Cl)cc2)[C@H](CO)O1` gave HIV Env fusion 5[16.7 µM] and Yeast UUG start -12.
For C[C@H]1CN([C@@H](C)CO)C(=O)Cc2cc(NS(=O)(=O)c3cn(C)cn3)ccc2O[C@H]1CN(C)Cc1ccc(Cl)c(Cl)c1 the results were HIV Env fusion 29[16.7 µM] and Yeast UUG start 7.
